Bioassay records: PubChem BioAssay, Center for Chemical Genomics, University of Michigan
TAR Tat displ: HIV-1 TAR-Tat binding disruption; HIV-1 TAR RNA, Tat peptide displacement FRET; stronger effect = higher value; actives 0.6% (n = 100,000); z-score (concentration not given with the values);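 also: score is relative to mean and SD of negative controls; some compounds called inactive have numbers as strong as hits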
CDC25B-CDK2 inh: human CDC25B-CDK2/CyclinA binding inhibition; P30305+P24941; HTRF CDC25B-CDK2/CyclinA binding, anti-His/anti-Flag; stronger effect = higher value; z-score (no concentration beside the values); actives 0.72% (n = 94,000);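 also: score is relative to mean and SD of negative controls; strong numbers were not always called active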
* hit, by the source's call; . = no result given.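 The calls were made as follows: active = z-score from 3 up in half or more of its runs; inactive = the rest.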

Start of the listing, in advance:
Below each SMILES – TAR Tat displ	CDC25B-CDK2 inh
COC(=O)C(C)Sc1nnc2cc(C)c3cccc(C)c3n12 (stereo not drawn)
  0.55	1.6
CN(C(=O)CSc1nc2ccc(NC(=O)COc3ccccc3)cc2s1)c1ccccc1
  0.93	0.26

The list itself, repeating the preview:
Below each SMILES – TAR Tat displ	CDC25B-CDK2 inh
COC(=O)C(C)Sc1nnc2cc(C)c3cccc(C)c3n12 (stereo not drawn)
  0.55	1.6
CN(C(=O)CSc1nc2ccc(NC(=O)COc3ccccc3)cc2s1)c1ccccc1
  0.93	0.26
CCOC(=O)c1nc2c(c(C)c(C)n2-c2ccc(C)cc2)c(=O)[nH]1
  -0.13	-0.09
O=C(C1CCCN(c2nc3cccnc3s2)C1)N1CCOCC1 (stereo not drawn)
  1.1	.
COC(=O)c1cc(S(=O)(=O)NCCc2ccco2)c[nH]1
  1.2	.
Cc1cc(C)cc(Nc2ncnc3[nH]ncc23)c1
  1.6	.
C#CCSc1nc(C(OC)OC)ccc1C#N
  .	-2.3
CCc1ccc2c(c1)NC(c1cccnc1)=NC(c1ccc(F)cc1)=N2
  0.7	-0.7
CCN1CCN(C(=O)CN2C(=O)COc3ccc(S(=O)(=O)N4CCOCC4)cc32)CC1
  0.13	-0.96
O=C(COc1ccccc1Cl)N1CCC(c2nc3ccccc3o2)CC1
  -0.28	0.59
COc1ccc(C2SCC(=O)N2c2ccc(Cl)cc2)cc1 (stereo not drawn)
  .	-2
Cn1ncc2c(N3CCOCC3)nc(N3CCN(CCO)CC3)nc21
  1	.
CCOC(=O)Cc1nc(N)ncc1C(=O)OCC
  .	-0.92
Cc1cc(C(C)(C)C)cc(S(=O)(=O)Nc2ccc(O)c(Sc3ncn[nH]3)c2)c1C
  0.43	-2.5
CC(NC(=O)C(C)n1sc2ccccc2c1=O)c1ccccc1 (stereo not drawn)
  2.2	-2.6
COc1ccc(CO)cc1OCc1ccccc1
  .	-1.4
CCOC(=O)c1sc(NC(=O)c2cc(-c3cccs3)on2)nc1C
  0.71	0.09
O=C(Cn1cc(S(=O)(=O)c2ccccc2)c(=O)c2ccccc21)Nc1ccc2c(c1)OCO2
  1.9	-0.18
COc1ccccc1Nc1ncc2c(n1)CCN(Cc1cc(Br)cs1)C2
  1.5	.
Cc1cc(C)cc(N2CC(C)Cn3c2nc2c3c(=O)n(CC(=O)O)c(=O)n2C)c1 (stereo not drawn)
  -1.3	-1.6

Below each SMILES – TAR Tat displ	CDC25B-CDK2 inh
CN1CCC(/C=C/c2cccs2)=N1
  .	-1.4
COc1ccccc1/C=C/c1nc(C#N)c(NCCc2ccc(OC)c(OC)c2)o1
  -1.5	-1.4
CC(C)N1C(=O)COc2ccccc2C1C(=O)NC1CCCC1 (stereo not drawn)
  2.4	.
Cc1nn(CC(=O)N2CCN(C(=O)c3ccco3)CC2)c(=O)c2cc3sccc3n12
  0.01	-0.7
COc1ccc(N2CCN(S(=O)(=O)CCNS(=O)(=O)c3ccc(F)cc3)CC2)cc1
  0.3	.
CCNc1cc(C)nc(N2CCN(S(=O)(=O)c3ccc4nc(C)sc4c3)CC2)n1
  1.2	.
CCCNC(=O)CCC(=O)N1CCCn2nc(-c3cccn3C)cc21
  -0.34	.
CC(C)n1cc2c(c1-c1ccc(Br)cc1)c(=O)n(C)c(=O)n2C
  0.04	-2.9
CCn1ncc(C2CC(=O)Nc3c2c(C)nn3-c2nc3ccc(OC)cc3s2)c1C (stereo not drawn)
  1.7	.
COc1ccc(OCC(=O)Nc2ccc3nsnc3c2)cc1
  0.82	-1.4
Cc1ccc(CNc2ncnc3onc(-c4ccccc4C)c23)cc1
  0.86	.
Cc1ccc2c(=O)cc(C(=O)Nc3nc4ccc(F)cc4s3)oc2c1C
  0.24	1.5
COc1cccc(-c2noc3ncnc(Nc4ccc5c(c4)OCCO5)c23)c1
  1.3	.
COc1ccccc1C(=O)N=S1CCN(c2ncc(C(F)(F)F)cc2Cl)CC1
  .	0.27
Cc1nc(N2CCCC2)ncc1C(=O)NCCC1=CCCCC1
  1.7	.
O=C(Nc1cc(F)ccc1F)N1CCN(c2ccnc3cc(Cl)ccc23)CC1
  .	0.26
Cc1ccc(C)c(N2CCN(C(=O)Cn3sc4nc(C)cc(C)c4c3=O)CC2)c1
  .	0.26
CN1CCN(c2nc3c(c(=O)n(C)c(=O)n3C)n2Cc2ccccc2Cl)CC1
  2.7	-1.7
CC1CCCCC1NC(=O)Cn1c(=O)c2cccn2c2cccnc21 (stereo not drawn)
  -0.31	.
CCOC(=O)CCc1c(O)c2ccccc2[nH]c1=O
  1.7	.

Full records from above. Order of values: TAR Tat displ | CDC25B-CDK2 inh
Cc1ccc2c(=O)cc(C(=O)Nc3nc4ccc(F)cc4s3)oc2c1C across the screens: 0.24 | 1.5
CCc1ccc2c(c1)NC(c1cccnc1)=NC(c1ccc(F)cc1)=N2 across the screens: 0.7 | -0.7
CCN1CCN(C(=O)CN2C(=O)COc3ccc(S(=O)(=O)N4CCOCC4)cc32)CC1 across the screens: 0.13 | -0.96
O=C(COc1ccccc1Cl)N1CCC(c2nc3ccccc3o2)CC1 across the screens: -0.28 | 0.59
O=C(Nc1cc(F)ccc1F)N1CCN(c2ccnc3cc(Cl)ccc23)CC1 across the screens: . | 0.26

More structures:
Below each SMILES – TAR Tat displ	CDC25B-CDK2 inh
Cc1ccccc1-c1noc2ncnc(NCc3ccco3)c12
  0.49	.
Cc1ccc(CN2CCC(CNS(=O)(=O)c3cc4[nH]c5c(c4cc3C)C(=O)CC(C)(C)C5)C2)cc1 (stereo not drawn)
  0.19	.
Cc1cccc(OCCSc2nc3ccccc3n2CCO)c1
  2.4	-1.4
Cc1ccc2nc(-n3nc(C)c4c3NC(=O)CC4c3ccc(F)cc3Cl)sc2c1 (stereo not drawn)
  1.2	.
O=S(=O)(c1ccccc1)c1cnc2ccccc2c1N1CCN(Cc2ccccc2)CC1
  0.84	2.4
CC(C)CC(C(=O)NCCC1=CCCCC1)N1Cc2ccccc2C1=O (stereo not drawn)
  -0.55	.
CS(=O)(=O)c1ccc2nc(NC(=O)c3nn(-c4cccc(Cl)c4)ccc3=O)sc2c1
  0.3	1.5
CC1(C)Cc2c(C#N)c(SCC(=O)c3ccccc3)nc(N3CCCC3)c2CO1
  3.8	-0.64
CC(=O)N1CCC(N(Cc2ccc(C)o2)C(=O)Nc2ccc3c(c2)OCCO3)CC1
  0.96	.
Cc1ccc(-c2nc3nc(C)cc(Nc4ccc(N(C)C)cc4)n3n2)cc1
  1	1.4
O=C(NCCN1CCCC1)c1cc(-c2ccccn2)nc2ccccc12
  -0.09	.
COc1ccc(C2/C(=C(\O)c3ccc(C)cc3)C(=O)C(=O)N2CCCn2ccnc2)c(OC)c1 (stereo not drawn)
  0.75	-3
COc1ccc(OC)c(NC2=NS(=O)(=O)C(c3ccccc3)=C2C)c1
  -0.46	-2.4
CC(=O)Nc1nonc1-c1nc2ccccc2n1Cc1nnc(C)o1
  0.84	-1.4
O=C(C(=O)N1CCc2ccccc2C1)c1c[nH]c2ccccc12
  0.51	10*
COC(=O)c1cc2occc2n1Cc1ccccc1
  0.52	-0.66
Cc1nc(SCC(=O)O)c([N+](=O)[O-])[nH]1
  0.87	0.55
O=C(O)CCC(=O)Nc1sc2c(c1C(=O)Nc1ccccc1)CCCC2
  .	-1.5
CC(C)NC(=O)c1ccc2c(c1)ncn2CCNC(=O)NC1CCCC1
  -0.79	.
O=S(=O)(Nc1ccc(Cl)cc1)c1ccc(-n2cccn2)cc1
  1.4	.

Below each SMILES – TAR Tat displ	CDC25B-CDK2 inh
Cn1ccc2cc(S(=O)(=O)N3CCC(C(=O)NCCN4CCCCC4)CC3)ccc21
  1.6	.
COc1cc2c(cc1OC)CN(C(=O)CSc1nnc3ccc4ccccc4n13)CC2
  0.44	-0.52
Cc1nn(CC(=O)NC2CCCc3ccccc32)c(=O)c2cc3cc(F)ccc3n12 (stereo not drawn)
  -0.43	-1.8
COc1nc(N2CC(C)CC(C)C2)nc(N)c1[N+](=O)[O-] (stereo not drawn)
  0.54	.
CCn1nccc1C1CCCN1C(=O)Nc1cc(C)cc(C)c1 (stereo not drawn)
  -0.51	-0.71
O=C(CCc1nnc2ccc(NCc3ccc4c(c3)OCO4)nn12)N1CCCC1
  2.4	.
CN(c1ccc(Cl)cc1)S(=O)(=O)c1ccc2[nH]cc(C(=O)NCC3CCCO3)c(=O)c2c1 (stereo not drawn)
  .	-0.69
CCC(CO)NC(=O)c1c(O)nc2c(C)cccn2c1=O (stereo not drawn)
  -0.33	-1.5
COc1cc(C2C(C(=O)OC(C)C)=C(C)NC3=C2C(=O)CCC3)ccc1OCc1ccccc1 (stereo not drawn)
  0.1	0.65
CCCCNS(=O)(=O)c1ccc2c(c1)oc(=O)n2C
  .	-1.5
NS(=O)(=O)c1ccc(CCNS(=O)(=O)c2ccccc2)cc1
  -0.16	-2.6
CC(C)C12CN3CC(C(C)C)(CN(C1)C3c1ccc(O)c(O)c1)C2=O (stereo not drawn)
  .	-2.9
O=C(Nc1ccccc1)c1oc2ccccc2c1NC(=O)c1nn(-c2cccc(Cl)c2)ccc1=O
  1.4	-0.95
Cc1cc(-c2onc(C)c2-c2nc(-c3cccc(C(F)(F)F)c3)no2)no1
  .	-1.4
Cc1ccc2nc(NC(=O)c3ccc([N+](=O)[O-])cc3)[nH]c(=O)c2c1
  .	-3.1
CCc1ccc(S(=O)(=O)Nc2ccc(N3CCCS3(=O)=O)cc2)s1
  0.96	.
Cc1c(C(=O)N2CCN(c3ccccn3)CC2)sc2ncn(CC(=O)N3CCC(C)CC3)c(=O)c12
  0.43	.
CC(C)Cc1nn2cc(-c3cccc(Br)c3)nc2s1
  2	0.84
Cn1c(=O)c2c(-c3cccc(Br)c3)n(CCCO)cc2n(C)c1=O
  1.1	-0.26
Cc1ccc(-n2nnc(-c3nc(-c4ccccc4F)no3)c2N)c(C)c1
  -0.5	.

Below each SMILES – TAR Tat displ	CDC25B-CDK2 inh
O=C(NCCc1csc(-c2cccs2)n1)C1CCN(C(=O)C2CCCCC2)CC1
  3.5	.
Cc1c(C#N)c(NC(=O)c2cc(Cl)cc(Cl)c2)n(CC2CC2)c1C
  .	-0.97
Cc1ccc(-n2cc(-c3ccccc3)c3c(NCc4cccnc4)ncnc32)cc1Cl
  0.72	.
O=C(C1CCCN1S(=O)(=O)c1cccc2cccnc12)N1CCc2ccccc2C1 (stereo not drawn)
  .	-2.5
Cc1csc2nc(-c3cccc(NS(=O)(=O)c4cccs4)c3)cn12
  0.95	.
Cc1ccc(N2C(=O)c3ccncc3C2=O)c(C)c1
  1.5	-0.83
CSc1c(C#N)c(-c2cccs2)nn1CC(=O)N/N=C/c1c(F)cccc1Cl
  .	-0.91
CSc1nnc(-c2ccc(S(=O)(=O)N=S(C)(=O)c3ccc(Cl)cc3)s2)n1C (stereo not drawn)
  .	-0.91
CCCSc1nnc(NC(=O)c2cc(=O)c3ccccc3o2)s1
  2.3	-1.3
Cc1cccc(-c2nnc(SCCOc3ccccc3)o2)c1
  2.9	-0.49
CCn1nc(C)c(CCNS(=O)(=O)c2cccs2)c1C
  0.08	.
CS(=O)(=NS(=O)(=O)NC(=O)Nc1cccc(C(F)(F)F)c1)c1ccccc1 (stereo not drawn)
  .	-1.2
O=C(CSCc1cccc2ccccc12)NNC(=O)C(F)(F)F
  .	-0.74
CC(=O)N1N=C(c2cccnc2)OC1c1cc(-c2ccccc2)nc2ccccc12 (stereo not drawn)
  0.35	.
CS(=O)(=O)n1nc(-c2ccco2)nc1NCc1ccccc1
  0.92	0.3
O=C(CS(=O)(=O)c1c[nH]c2ccccc12)N1CCc2ccccc21
  .	1
Cc1nnc(N2CCN(c3ccccc3F)CC2)c2c1nnn2Cc1ccc(F)cc1
  1.1	-2.4
O=c1c(O)c(Nc2ccccc2)c1=O
  1.2	.
CCCCC(=O)OC1=C(C(=O)c2ccccc2)N(CC)S(=O)(=O)c2ccccc21
  0.88	2.1
Cc1noc(C)c1S(=O)(=O)N1CCCC1C(=O)NC1CCCCC1C (stereo not drawn)
  1.9	.

Ordered by heavy-atom count (falling): 3 of the compounds above
Below each SMILES – TAR Tat displ	CDC25B-CDK2 inh
O=C(NCCc1csc(-c2cccs2)n1)C1CCN(C(=O)C2CCCCC2)CC1
  3.5	.
Cc1cccc(-c2nnc(SCCOc3ccccc3)o2)c1
  2.9	-0.49
Cc1ccc(N2C(=O)c3ccncc3C2=O)c(C)c1
  1.5	-0.83

Next records.
Below each SMILES – TAR Tat displ	CDC25B-CDK2 inh
CC1=C(C(=O)N2CCOCC2)C(c2ccc3c(c2)OCO3)C2=C(CCCC2=O)N1 (stereo not drawn)
  1.3	.
COc1ccccc1N1CCN(S(=O)(=O)c2ccc3[nH]c4c(c3c2)CCCCC4)CC1
  0.81	.
O=C1CSC(=Nc2c(Br)cc(F)cc2Br)N1Cc1cccs1
  .	-1.4
COc1cccc(C(=O)CC2(O)C(=O)Nc3ccc(F)cc32)c1 (stereo not drawn)
  1.5	.
CCN(CC)C(=O)CSc1nc2c(sc(=S)n2CC)c(=O)n1-c1ccccc1
  0.97	-2
CCCc1cc(=O)n2nc(N3CCC(C(=O)NCCCN4CCOCC4)CC3)sc2n1
  0.51	-1.2
CS(=O)(=O)Nc1cccc(C2=NN(C(=O)CCCC(=O)O)C(c3cccs3)C2)c1 (stereo not drawn)
  1.4	-2.6
O=C(CSC1CC(=O)N(c2ccccc2)C1=O)Nc1ccc(Br)cc1 (stereo not drawn)
  0.44	-1.4
O=C(Cn1ncc2c(Cl)cccc21)NC1CCCC1
  0.6	-2.4
Cc1ccccc1-c1nnc(Cc2ccc(Cl)cc2)o1
  -0.37	-0.4
O=S(=O)(c1ccc(-c2cc(C(F)(F)F)on2)s1)N(Cc1ccco1)C1CCCCC1
  2	.
c1ccc2c(c1)OCC(c1csc3ncnc(N4CCCCC4)c13)O2 (stereo not drawn)
  0.85	-0.68
O=C(Oc1ccc(F)cc1Cl)c1cc2ccccc2s1
  .	-0.87
